Screening data: PubChem, National Center for Advancing Translational Sciences (NCATS)
Marburg entry inh = Marburg virus entry inhibition; Marburg virus pseudotyped entry inhibition, cell reporter; control for the full effect not named in the record; about a third of the inactives were read at about 46 µM; Potency, µM (series often up to 37.8 µM), inactives show top-dose activity change, negative = inhibition, usual class: inhibitors; 1.8% of 300,000 active; AID 540276; active = well fitted inhibition curve with a large enough effect; inconclusive = small, poorly fitted or top-dose-only effect, or effect the other way; inactive = flat fitted curve, though single readings scatter; tested in HEK293 cells; about a fifth of its hits are not listed in these tables; also: % is scaled to controls: 0 for no effect and ±100 for the full control effect; luciferase read-out
Cruzain inh noDet = blocks cruzain activity in detergent-free assay | 2.3% of 200,000 active | P25779 | AID 1476 | Potency, µM, inactives show max response, negative = inhibition, hits mostly inhibitors | purified cruzain, Z-FR-AMC fluorescence, no detergent;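 also: plate controls were enzyme without inhibitor for no effect and buffer without enzyme for full effect; nearly all actives have a fitted effect of over 40% in size; top concentration of the series not given in the record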
Target sequence (P25779 123-467 limits assumed): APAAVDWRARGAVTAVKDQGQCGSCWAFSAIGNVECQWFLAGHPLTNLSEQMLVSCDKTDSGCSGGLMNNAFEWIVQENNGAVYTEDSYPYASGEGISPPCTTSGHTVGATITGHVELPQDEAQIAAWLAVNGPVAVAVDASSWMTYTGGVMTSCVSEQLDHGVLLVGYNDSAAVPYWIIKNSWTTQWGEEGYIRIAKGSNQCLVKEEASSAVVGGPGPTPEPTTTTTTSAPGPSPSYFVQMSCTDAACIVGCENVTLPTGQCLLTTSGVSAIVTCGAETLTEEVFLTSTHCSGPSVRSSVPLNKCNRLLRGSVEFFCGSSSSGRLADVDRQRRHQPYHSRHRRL
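Detergent-free condition (0.00005% Triton X-100) in acetate buffer pH 5.5 with DTT. 1.5 nM enzyme and compound were pre-mixed 15 min, then 2 uM Z-FR-AMC substrate added; reaction progress from fluorescence change between first and third reads (60 s).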
NS1 inh = blocks influenza NS1 protein function. S. cerevisiae slowed by influenza A NS1, growth recovery by OD600. Potency, µM (doses to about 46.1 µM), for inactives: at the top dose activity, positive = more growth. 0.4% of 270,000 active; active means well fitted rising curve with a large enough effect; inconclusive means small, poorly fitted or top-dose-only effect; inactive means no such curve, though single readings can be large or run the other way; also: nearly all actives have a fitted effect of over 50% in size
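Read-out: OD600 growth recovery of NS1-expressing budding yeast. Cells grown overnight at 30C in -URA glucose medium, washed, resuspended and diluted 1:100 in 2% galactose assay medium, pH 6.0. Same strain lacking NS1 served as positive control.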
Lassa entry inh = Lassa virus entry inhibition | Lassa virus pseudotype entry inhibition, cell reporter; control for the full effect not named in the record | Potency, µM (highest dose often 37.9 µM), inactives show top-dose activity change, negative = inhibition, hits mostly inhibitors | 1.2% of 300,000 active | AID 540256; active means well fitted inhibition curve with a large enough effect; inconclusive means small, poorly fitted or top-dose-only effect, or effect the other way; inactive means flat fitted curve, though single readings scatter; tested in HEK293 cells; also: % is scaled to controls: 0 for no effect and ±100 for the full control effect; nearly all actives have a fitted effect of over 50% in size; luciferase read-out
RE007 growth inh = less growth of the S. pombe RE007 Vpr strain; S. pombe RE007 Vpr strain, BacTiter-Glo ATP luminescence, 24 h; control for the full effect not named in the record; Potency, µM (doses to about 92.2 µM), for the others: at the top dose activity change, negative = less growth; 0.21% of 360,000 active; active = well fitted falling curve with a large enough effect; inconclusive = small, poorly fitted or top-dose-only effect; inactive = no such curve, though single readings can be large or run the other way;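 also: % is scaled to controls: 0 for no effect and ±100 for the full control effect; nearly all actives have a fitted effect of over 50% in size; the assay follows cell death caused by Vpr and the record does not say whether a fall means rescue or toxicity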
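Fission yeast RE007 carrying one integrated HIV-1 vpr copy, seeded at OD 0.01 in PMG+AL medium with 23 nL pinned compound. Grown 24 h at 30 degrees; viability read by BacTiter-Glo luminescence after 5 min.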
SARS PLP yeast = inhibitors of SARS-CoV papain-like protease in yeast; S. cerevisiae expressing SARS-CoV PLpro, growth rescue; control for the full effect not named in the record; Potency, µM (highest dose often 32.9 µM), for the others: at the top dose activity, positive = growth rescue; 0.19% of 330,000 active; active means well fitted rising curve with a large enough effect; inconclusive means small, poorly fitted or top-dose-only effect; inactive means no such curve, though single readings can be large or run the other way; also: 0% is about no effect; nearly all actives have a fitted effect of over 55% in size; growth read by luminescence after 48 h
StopGo reporter = lowers the luciferase signal of an FMDV 2A StopGo reporter; human cells with a luciferase reporter of 2A StopGo recoding; control for the full effect not named in the record; Potency, µM (doses to about 57.9 µM), for inactives: at the top dose signal change, negative = less light; 1.2% of 410,000 active; AID 1159524; active = well fitted falling curve with a large enough effect; inconclusive = small, poorly fitted or top-dose-only effect; inactive = no such curve, though single readings can be large or run the other way; tested in HEK293T cells; also: % is scaled to controls: 0 for no effect and ±100 for the full control effect; nearly all actives have a fitted effect of over 45% in size; luciferase light after 4 h
Cruzain Triton = blocks cruzain activity in presence of Triton detergent; P25779; purified cruzain, Z-FR-AMC fluorescence, 0.01% Triton; Potency, µM, for the others: max response, negative = inhibition, hits mostly inhibitors; 0.43% of 200,000 active; AID 1478;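 also: plate controls were neutral wells for no effect and buffer without enzyme for full effect; nearly all actives have a fitted effect of over 40% in size; top concentration of the series not given in the record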
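Read-out: AMC fluorescence (360 nm excitation, 450 nm emission), four reads over 2 min, first-to-third difference used. Conditions: cruzain 1.5 nM, Z-FR-AMC 2 uM, pH 5.5 acetate, 5 mM DTT, 0.01% Triton X-100.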
* = called active by the depositor; ? = inconclusive; . = no result given; [ ] = remark or other dose. Unless noted, calls follow the shape of the dose curve; as a rule, active = well fitted curve in the direction sought with a large enough effect; inconclusive = small, poorly fitted or top-dose-only effect, or another doubt; inactive = no such curve, though single readings can be large; an effect the other way counts as inactive or inconclusive. Potency is read from the fitted curve at half-maximal effect.

1. O=C1S/C(=C/c2ccccc2)C(=O)N1CC(O)Cn1c2ccccc2c2ccccc21 (stereo unspecified)
2. Cc1cc(N2CCCCC2)n2ncc(-c3ccccc3)c2n1
3. O=C(CSc1ccccn1)Nc1ccc(Cl)c([N+](=O)[O-])c1
4. Cc1ccc(-c2nc3ncccc3o2)cc1NC(=O)c1cccc(OCC(C)C)c1
5. CCOC(=O)Cn1c(S(=O)(=O)Cc2ccc(Cl)cc2)nc(-c2ccccc2)c1-c1ccccc1
6. CC(C)CCNC(=O)C(c1ccncc1)N(CC1CCCO1)C(=O)Cn1nnc(-c2ccc(F)cc2)n1 (stereo unspecified)
Screen / compound no. | 1 | 2 | 3 | 4 | 5 | 6
Marburg entry inh | ? | ? | 7% | 7%[46.1 µM] | ? | ?
Cruzain inh noDet | -81% | -3% | . | 3% | ? | .
NS1 inh | -4% | -88% | . | . | 12% | 0%
Lassa entry inh | -19% | 4.5µM* | -4% | ? | ? | -5%
RE007 growth inh | -1% | -1% | 9% | . | -13% | -15%
SARS PLP yeast | -4% | -2% | -3% | . | -1% | 1%
StopGo reporter | -22% | ? | 9% | ? | -18% | 64%[activator]
Cruzain Triton | -0.2% | -19% | . | -3.1% | 2.9% | .

7. CC1=C(C(=O)Nc2ccccc2)C(c2ccco2)C(C#N)=C(SCc2ccccc2)N1 (stereo unspecified)
8. COC(=O)c1ccccc1NC(=S)NC(=O)c1ccc(C)cc1
9. COc1ccc(OCC(=O)NCC2(N3CCN(C)CC3)CCCCC2)cc1
10. COc1ccc(OC)c(CN2CCC(C(=O)N3CCN(c4ccccc4F)CC3)CC2)c1
11. CCOc1ccc2nc(N(CCN(CC)CC)C(=O)/C=C/c3cccs3)sc2c1
12. O=C(CCSc1nnc(-c2ccco2)o1)N1CCOCC1
Screen / compound no. | 7 | 8 | 9 | 10 | 11 | 12
Marburg entry inh | . | -19% | -12%[46.1 µM] | ? | ? | ?
Cruzain inh noDet | 20µM* | 4% | -9% | 3% | . | .
NS1 inh | -2% | -16% | . | ? | -11% | .
Lassa entry inh | . | 15% | 0%[46.1 µM] | -23% | -24%[46.1 µM] | 18%
RE007 growth inh | . | -13% | . | 7% | -13% | 1%
SARS PLP yeast | -3% | -64% | . | 8% | 1% | -1%
StopGo reporter | . | -4% | 7% | ? | -7% | 7%
Cruzain Triton | -5.4% | -3.6% | 0.6% | -1.1% | . | .

Compounds 7 to 8, reprinted for reference:
7. CC1=C(C(=O)Nc2ccccc2)C(c2ccco2)C(C#N)=C(SCc2ccccc2)N1 (stereo unspecified)
8. COC(=O)c1ccccc1NC(=S)NC(=O)c1ccc(C)cc1
Screen / compound no. | 7 | 8
Marburg entry inh | . | -19%
Cruzain inh noDet | 20µM* | 4%
NS1 inh | -2% | -16%
Lassa entry inh | . | 15%
RE007 growth inh | . | -13%
SARS PLP yeast | -3% | -64%
StopGo reporter | . | -4%
Cruzain Triton | -5.4% | -3.6%

One compound at a time, as listed above.
`CC1=C(C(=O)Nc2ccccc2)C(c2ccco2)C(C#N)=C(SCc2ccccc2)N1` (stereo unspecified) is listed with Marburg entry inh: .; Cruzain inh noDet: 20µM*; NS1 inh: -2%; Lassa entry inh: .; RE007 growth inh: .; SARS PLP yeast: -3%; StopGo reporter: .; Cruzain Triton: -5.4%
`COc1ccc(OCC(=O)NCC2(N3CCN(C)CC3)CCCCC2)cc1` is listed with Marburg entry inh: -12%[46.1 µM]; Cruzain inh noDet: -9%; NS1 inh: .; Lassa entry inh: 0%[46.1 µM]; RE007 growth inh: .; SARS PLP yeast: .; StopGo reporter: 7%; Cruzain Triton: 0.6%

More records.
13. COc1ccccc1-c1nnc(C2CCN(S(=O)(=O)c3ccccc3[N+](=O)[O-])CC2)o1
14. CC(=O)c1c(N2CCOCC2)[nH]c(-c2ccccc2)nc1=S
15. COCC(=O)Nc1cc(C(=O)NCCc2ccccc2)ccc1Cl
16. CC(C)C(=O)Nc1c2c(nn1-c1ccc(F)cc1)CS(=O)(=O)C2
17. CCOC(=O)c1nnn(-c2nonc2N)c1C
18. CN(c1ccc(F)cc1)S(=O)(=O)c1ccc(Cl)c(C(=O)NCC2(N3CCOCC3)CCCCC2)c1
Screen / compound no. | 13 | 14 | 15 | 16 | 17 | 18
Marburg entry inh | . | 25% | ? | 0%[46.1 µM] | 2% | ?
Cruzain inh noDet | . | -8% | -7% | . | 3% | .
NS1 inh | 1% | ? | -10% | 3% | 8% | .
Lassa entry inh | . | 3% | 10µM* | -15%[46.1 µM] | 2% | ?
RE007 growth inh | -5% | 2% | 3% | -2% | -3% | -22%
SARS PLP yeast | -3% | -9% | -20% | -1% | 17% | .
StopGo reporter | -7% | -23% | -15% | -17% | 18% | ?
Cruzain Triton | . | -7.2% | 2.3% | . | 4.3% | .

4 records drawn at random from those above:
14. CC(=O)c1c(N2CCOCC2)[nH]c(-c2ccccc2)nc1=S
18. CN(c1ccc(F)cc1)S(=O)(=O)c1ccc(Cl)c(C(=O)NCC2(N3CCOCC3)CCCCC2)c1
17. CCOC(=O)c1nnn(-c2nonc2N)c1C
13. COc1ccccc1-c1nnc(C2CCN(S(=O)(=O)c3ccccc3[N+](=O)[O-])CC2)o1
Screen / compound no. | 14 | 18 | 17 | 13
Marburg entry inh | 25% | ? | 2% | .
Cruzain inh noDet | -8% | . | 3% | .
NS1 inh | ? | . | 8% | 1%
Lassa entry inh | 3% | ? | 2% | .
RE007 growth inh | 2% | -22% | -3% | -5%
SARS PLP yeast | -9% | . | 17% | -3%
StopGo reporter | -23% | ? | 18% | -7%
Cruzain Triton | -7.2% | . | 4.3% | .

Other records
19. CNC(=O)NC(=O)Cn1cnc2sc(-c3ccccc3)cc2c1=O
20. COc1ccc(C(=O)NNC(=O)CSc2nnc(C)n2CC2CCCO2)cc1 (stereo unspecified)
21. CN(C(=O)CN1C(=O)c2ccccc2S1(=O)=O)C1CCCCC1
22. COc1ccc(Cl)cc1NC(=O)CN(C)C(=O)c1cc2ccccc2cc1O
23. COc1ccc(CCNC(=O)Cn2nnc(-c3ccc(N4CCOCC4)cc3)n2)cc1OC
24. N#CC(C#N)=Cc1cccn1-c1ccc(S(N)(=O)=O)cc1
Screen / compound no. | 19 | 20 | 21 | 22 | 23 | 24
Marburg entry inh | -2%[46.1 µM] | -12%[46.1 µM] | ? | 0% | ? | ?
Cruzain inh noDet | . | . | . | . | 11% | .
NS1 inh | -4% | 0% | . | . | 2% | ?
Lassa entry inh | -30% | 6%[46.1 µM] | ? | -21%[46.1 µM] | 15% | ?
RE007 growth inh | 0% | 2% | -22% | 7% | -8% | 0%
SARS PLP yeast | 1% | 0% | 1% | 0% | 6% | 0%
StopGo reporter | -6% | 4% | 35%[activator] | 23% | 11% | -21%
Cruzain Triton | . | . | . | . | -0.7% | .

25. O=C(Nc1ccccc1C(F)(F)F)c1c(F)cccc1Cl
26. O=C(CSc1nc(=O)n(CCN2CCOCC2)c2c1CCC2)Nc1ccc(OC(F)(F)F)cc1
27. CC(C)C[C@H](NC(=O)c1nc[nH]c1C(=O)NCc1ccccc1)C(=O)OC(C)(C)C
28. CCOC(=O)COn1c(SCC(=O)OCC)nc2ccccc2c1=O
29. S=c1[nH]nc(CCc2nc3ccccc3[nH]2)n1-c1ccccc1
30. O=C(CCc1ccccc1)NCCc1nc2ccccc2[nH]1
31. Cc1ccc(CSCC(=O)NN=C2CCN(C)CC2)cc1
32. CNC(=S)N(C)[C@H]1c2c(ccc3ccccc23)OC[C@H]1CO
Screen / compound no. | 25 | 26 | 27 | 28 | 29 | 30 | 31 | 32
Marburg entry inh | 5% | -24%[46.1 µM] | . | ? | . | . | -3% | 5%[46.1 µM]
Cruzain inh noDet | . | . | . | 5% | . | . | -1% | .
NS1 inh | -2% | . | 7% | -106% | 10% | 1% | 11% | .
Lassa entry inh | 9% | -6% | . | -1% | . | . | ? | 21%[46.1 µM]
RE007 growth inh | 3% | -7% | 3% | 14% | 1% | -16% | -22% | 9%
SARS PLP yeast | -1% | 1% | -3% | . | 2% | -2% | -14% | 0%
StopGo reporter | 0% | ? | -15% | -13% | 4% | -5% | 11% | 0%
Cruzain Triton | . | . | . | -3.1% | . | . | 0.3% | .
